# Compound activity as filed in PubChem BioAssay.
# c-Myc SMM = c-Myc (human) binding. P01106. small molecule microarray, His-c-Myc binding, anti-His fluorescence. calls only. 17,000 compounds, 1.5% hits. AID 624141;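 active = spot fluorescence over background with P-value below 7% in all four replicate spots, showing protein binding; compounds were printed on slides so no solution concentration is given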;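 note: score is binary with 100 for all four spots passing and 0 otherwise; about 2 pmol printed per array spot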
# STAT3 SMM = binds human STAT3 on microarray | P40763 | Small molecule microarray, His-STAT3 binding, anti-His fluorescence | calls only | 17,000 compounds, 0.2% hits | AID 624138;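 active = compounds whose four printed spots each show fluorescence over background unusually high for their array block, chance value under 7%; compounds were printed on slides so no solution concentration is given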;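 note: about 2 pmol printed per array spot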
# Target sequence (P40763 whole entry, looked up): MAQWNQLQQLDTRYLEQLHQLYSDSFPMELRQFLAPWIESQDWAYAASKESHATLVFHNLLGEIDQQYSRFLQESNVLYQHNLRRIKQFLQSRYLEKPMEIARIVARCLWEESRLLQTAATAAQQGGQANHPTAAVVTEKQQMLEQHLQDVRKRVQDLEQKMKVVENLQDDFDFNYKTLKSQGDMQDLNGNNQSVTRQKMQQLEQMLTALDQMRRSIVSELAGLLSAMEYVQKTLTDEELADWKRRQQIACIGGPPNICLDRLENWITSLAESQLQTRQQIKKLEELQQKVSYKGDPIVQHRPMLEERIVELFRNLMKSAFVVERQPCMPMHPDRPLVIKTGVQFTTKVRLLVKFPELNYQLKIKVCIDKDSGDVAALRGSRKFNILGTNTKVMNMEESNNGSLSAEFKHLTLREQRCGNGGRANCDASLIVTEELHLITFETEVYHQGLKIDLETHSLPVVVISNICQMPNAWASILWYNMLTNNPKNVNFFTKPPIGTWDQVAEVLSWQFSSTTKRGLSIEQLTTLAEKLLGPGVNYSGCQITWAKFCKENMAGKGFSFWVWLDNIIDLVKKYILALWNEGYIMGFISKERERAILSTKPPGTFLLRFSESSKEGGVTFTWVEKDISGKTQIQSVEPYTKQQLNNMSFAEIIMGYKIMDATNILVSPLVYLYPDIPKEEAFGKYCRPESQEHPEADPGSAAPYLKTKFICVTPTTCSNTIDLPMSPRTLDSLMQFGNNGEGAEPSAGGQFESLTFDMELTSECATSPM
# ID4 SMM = binders of human ID4 protein; P47928; small molecule microarray, Flag-ID4 binding, fluorescence F/B; calls only; 31,000 compounds, 1.2% hits; AID 624137;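 active = spot signal over background at p below 0.07 in all four prints; compounds were printed on slides so no solution concentration is given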;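 note: a binder raises fluorescence above local background on the spot; about 2 pmol printed per array spot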
# Target sequence (P47928 whole entry, looked up): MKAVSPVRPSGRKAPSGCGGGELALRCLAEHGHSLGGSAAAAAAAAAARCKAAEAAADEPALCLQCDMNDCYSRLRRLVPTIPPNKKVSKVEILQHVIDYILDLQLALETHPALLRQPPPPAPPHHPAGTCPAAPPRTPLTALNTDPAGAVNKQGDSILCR
# mut p53 SMM = binders of human mutant p53; calls only; 17,000 compounds, 0.4% hits; small molecule microarray binding, anti-GST fluorescence; AID 624136;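 active = compounds whose four printed spots each glow above background more than chance allows, each with a p-value under 7%; compounds were printed on slides so no solution concentration is given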;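 note: about 2 pmol printed per array spot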
# Calls only; i = inactive; x = no result given; + = active, no number.
mol | c-Myc SMM | STAT3 SMM | ID4 SMM | mut p53 SMM
COC(=O)[C@@H]1C[C@@]23C=CC[N+]4([O-])CC[C@@]5(c6ccccc6N[C@@]15C2C)[C@H]34 (some centres not stated) | i | i | x | i
C[C@H]1CCCCO[C@H](CN(C)C(=O)Cc2ccccc2)[C@@H](C)CN([C@@H](C)CO)C(=O)c2cc(NC(=O)Nc3ccc(F)cc3)ccc2O1 | i | i | i | i
OC(CSc1nc2ccccc2s1)CC(O)c1ccccc1 (configuration not stated) | i | i | i | i
C[C@@H]1CN([C@H](C)CO)C(=O)Cc2cc(NC(=O)c3ccncc3)ccc2O[C@@H]1CN(C)C(=O)NC1CCCCC1 | i | i | i | i
COc1ccc(Cl)cc1NC(=S)NCCCN1CCCC1=O | + | i | i | i
C[C@@H]1CCCCO[C@@H](CN(C)S(=O)(=O)c2ccccc2)[C@@H](C)CN([C@@H](C)CO)C(=O)c2cc(NC(=O)c3ccccc3)ccc2O1 | i | i | i | i
C[C@@H]1CN([C@H](C)CO)C(=O)c2cc(NC(=O)Nc3ccc4c(c3)OCO4)ccc2O[C@@H]1CN(C)Cc1ccc(C(F)(F)F)cc1 | i | i | i | i
Cc1cccc(NC(=O)CSc2nc3ncnc(N)c3[nH]2)c1 | i | i | i | i
C[C@@H]1CN([C@H](C)CO)C(=O)c2cccc(NC(=O)c3ccncc3)c2O[C@@H]1CN(C)C(=O)Nc1ccccc1 | i | i | i | i
C[C@@]12C[C@@H](c3ccoc3)OC(=O)[C@H]1CC[C@@]1(C)C(C(=O)O)=CCC[C@@H]21 | i | i | x | i
Cc1noc(C)c1NC(=O)Nc1ccc2c(c1)CC(=O)N([C@@H](C)CO)C[C@H](C)[C@H](CN(C)S(=O)(=O)c1cccs1)O2 | i | i | i | i
Cc1ccc(S(=O)(=O)Nc2ccc3c(c2)CC(=O)N([C@@H](C)CO)C[C@@H](C)[C@H](CN(C)Cc2ccncc2)O3)cc1 | i | i | i | i
CC(C)NC(=O)Nc1ccc2c(c1)CC(=O)N([C@H](C)CO)C[C@H](C)[C@H](CN(C)C)O2 | i | i | i | i
CCCc1c(OCCCOc2ccc(OCC(=O)O)cc2)ccc(CC=O)c1O | i | i | i | i
CCc1ccccc1NC(=O)CC(O)(C(=O)OC)C(F)(F)F (configuration not stated) | i | i | i | i
O=C(CSc1ncn[nH]1)N(c1ccccc1)c1ccccc1 | i | i | i | i
CCCC(O)C#Cc1cnc2c(c1)C(=O)N([C@H](C)CO)C[C@H](C)[C@H](CN(C)C(=O)Nc1ccc(F)cc1)O2 (some centres not stated) | i | i | i | i
COc1ccc(COCC23N=C4SCc5ccccc5C(=O)N4[C@H](c4ccccc4O2)[C@H]3CO[Si](C)(C)C(C)(C)C)cc1 | i | i | i | i
C[C@@H]1CCCCO[C@H](CN(C)C(=O)C2CCCCC2)[C@H](C)CN([C@@H](C)CO)C(=O)c2cc(NS(=O)(=O)c3ccccc3)ccc2O1 | i | i | i | i
O=C(OC[C@H]1O[C@@H](Oc2ccc(O)cc2COC(=O)C2(O)C=CCCC2=O)[C@H](O)[C@@H](O)[C@@H]1O)c1ccccc1 (some centres not stated) | i | i | x | i
C[C@@H]1CCCCO[C@H](CN(C)S(=O)(=O)c2ccc(F)cc2)[C@@H](C)CN([C@H](C)CO)C(=O)c2cc(NC(=O)Nc3ccc(F)cc3)ccc2O1 | i | i | x | i
CCOC(=O)c1c(NC(=O)CN2C(=O)c3ccccc3C2=O)sc2c1CCC(C)C2 (configuration not stated) | i | i | i | i
CNC[C@@H]1OCCCC[C@@H](C)Oc2ccc(NC(=O)NC(C)C)cc2C(=O)N([C@H](C)CO)C[C@H]1C | i | i | i | i
CC1=C2CCC(C(=O)O)=CC2C(C(C)C)CC1 (configuration not stated) | i | i | x | i
C[C@H](CO)N1C[C@H](C)[C@@H](CN(C)C(=O)Nc2ccc(C(F)(F)F)cc2)OCCCC[C@H](C)Oc2ccc(NS(C)(=O)=O)cc2C1=O | i | i | i | i
Cc1cc(O)c(Cc2c(O)cc(C)c(C=O)c2O)c(O)c1C | i | i | i | i
O=C1O[C@@H](c2ccccc2)[C@@H](c2ccccc2)N2[C@@H](c3ccc(O)cc3)[C@]3(C(=O)Nc4ccc(C#CCCO)cc43)[C@@H](C(=O)N3CCN(c4ncccn4)CC3)[C@H]12 | i | i | x | i
C[C@@H]1CN([C@@H](C)CO)C(=O)CCCn2cc(nn2)CO[C@@H]1CN(C)Cc1ccc2cccnc2c1 | i | i | i | i
C[C@@H]1CN([C@@H](C)CO)C(=O)c2cccc(N(C)C)c2O[C@@H]1CN(C)Cc1ccc(C(=O)O)cc1 | i | i | i | i
C=CCOC(=O)[C@H]1[C@@H]2C(=O)O[C@@H](c3ccccc3)[C@@H](c3ccccc3)N2[C@@H](c2ccc(OCCOC(=O)[C@@H]3C[C@@H]4C(=O)N[C@@H](Cc5ccccc5)C(=O)N4[C@@H]3c3ccc(O)cc3)cc2)[C@]12C(=O)Nc1ccccc12 | i | i | i | i
Cc1noc(C)c1NC(=O)Nc1cccc2c1O[C@H](CN(C)C)[C@@H](C)CN([C@H](C)CO)C2=O | i | i | i | i
C[C@@H]1CN([C@H](C)CO)C(=O)c2cc(NC(=O)c3ccncc3)ccc2O[C@@H](C)CCCCO[C@@H]1CN(C)Cc1ccncc1 | i | i | i | i
C[C@@H]1CN([C@@H](C)CO)C(=O)Cc2cc(NS(=O)(=O)c3ccccc3)ccc2O[C@H]1CN(C)C(=O)Nc1cccc2ccccc12 | i | i | i | i
C=CCN1Cc2ccccc2[C@H]2OC(c3ccc(OCCCO)cc3)=N[C@@]2(CC=C)C1=O | i | i | i | +
COc1ccc(CCNC(=O)c2cc(-c3ccncc3)nc3c(Cl)cccc23)cc1OC | i | i | i | i
C[C@@H]1CCCCO[C@H](CN(C)Cc2ccncc2)[C@@H](C)CN([C@@H](C)CO)C(=O)c2cc(NS(C)(=O)=O)ccc2O1 | i | i | i | i

# (further entries)
canonical_smiles	c-Myc SMM	STAT3 SMM	ID4 SMM	mut p53 SMM
O=C1O[C@H](c2ccccc2)[C@H](c2ccccc2)N2[C@H]1[C@@H](C(=O)NC[C@H](O)c1ccccc1)[C@]1(C(=O)Nc3ccc(C#CC4(O)CCCCCC4)cc31)[C@H]2c1ccc(OCCO)cc1	i	i	i	i
COc1ccc(CN(C)C[C@@H]2Oc3c(NS(=O)(=O)c4ccc(Cl)cc4)cccc3C(=O)N([C@@H](C)CO)C[C@H]2C)cc1	i	i	i	i
COc1ccc(COCC23N=C4SCc5ccccc5C(=O)N4[C@H](c4ccccc4O2)[C@H]3COC(=O)c2ccccc2)cc1	i	i	i	i
Cc1noc(C)c1S(=O)(=O)Nc1ccc2c(c1)CC(=O)N([C@@H](C)CO)C[C@H](C)[C@H](CN(C)C(=O)Nc1ccc(C(F)(F)F)cc1)O2	i	i	i	i
Cc1sc2ncn(CC(=O)NCc3ccco3)c(=O)c2c1C	i	i	i	i
CC(C)NC(=O)N(C)C[C@H]1OCCCC[C@H](C)Oc2ccc(NC(=O)CCC(F)(F)F)cc2C(=O)N([C@@H](C)CO)C[C@@H]1C	i	i	i	i
O=C1N(CCS(=O)(=O)c2ccccc2)Cc2ccccc2[C@@H]2OC(c3ccc(OCCCO)cc3)=N[C@]12CCS(=O)(=O)c1ccccc1	i	i	i	i
C[C@@H]1CN([C@@H](C)CO)C(=O)c2cccc(NS(=O)(=O)c3ccc(Cl)cc3)c2O[C@@H]1CN(C)CC1CC1	i	i	i	i
C[C@@H]1CCCCO[C@@H](CN(C)C(=O)C2CCCCC2)[C@H](C)CN([C@H](C)CO)C(=O)c2cc(NC(=O)Nc3ccc4c(c3)OCO4)ccc2O1	i	i	x	i
CCO[C@@H]1OC(C(=O)N2CCN(Cc3ccc4c(c3)OCO4)CC2)=C[C@H](C(C)(C)C)[C@H]1CCCO	i	i	i	i
C[C@@H]1CN([C@@H](C)CO)C(=O)c2cccc(NC(=O)c3ccncc3)c2O[C@H]1CN(C)Cc1ccc(Cl)c(Cl)c1	i	i	i	i
C[C@H](CO)N1C[C@H](C)[C@H](CN(C)Cc2ccncc2)OCCCC[C@H](C)Oc2ccc(NC(=O)CCCN(C)C)cc2C1=O	i	i	i	i
C[C@@H]1CN([C@H](C)CO)C(=O)CCCn2cc(nn2)CO[C@H]1CN(C)C(=O)Nc1ccnc(N2CCOCC2)c1	i	i	i	i
CC(Sc1nc(N)cc(N)n1)C(=O)Nc1ccc(Cl)cc1 (configuration not stated)	i	i	i	i
CCCCc1nn(-c2ccccc2C(F)(F)F)c(=O)n1Cc1ccc(-c2ccccc2S(=O)(=O)NC(=O)c2sccc2C)cc1	+	i	i	i
C=C(C(=O)O)[C@@H]1CC[C@@]2(C)CC(=O)C=C(C)C2C1 (some centres not stated)	i	i	i	i
C[C@@H]1CN([C@H](C)CO)C(=O)c2cccc(NS(C)(=O)=O)c2O[C@@H]1CN(C)C	i	i	i	i
CC(C)NC(=O)N(C)C[C@H]1OCCCC[C@H](C)Oc2ccc(NS(C)(=O)=O)cc2C(=O)N([C@@H](C)CO)C[C@H]1C	i	i	i	i
COc1ccc(CN(C)C[C@@H]2OCCCC[C@@H](C)Oc3ccc(NC(=O)NC(C)C)cc3C(=O)N([C@@H](C)CO)C[C@@H]2C)cc1	i	i	x	i
COC(=O)C1(Cc2ccc(O)cc2)OC(=O)C(OC)=C1c1ccc(O)cc1 (configuration not stated)	i	i	i	i
C[C@H]1CN([C@@H](C)CO)C(=O)Cc2cc(NC(=O)C3CC3)ccc2O[C@H]1CN(C)C(=O)Nc1cccc2ccccc12	i	i	i	i
COCCCNC(=O)[C@@]1(Cc2ccccc2)COC(c2ccc(OCCCO)cc2)=N1	i	i	i	i
CC(C)NC(=O)N(C)C[C@@H]1Oc2ccc(NC(=O)CCN3CCOCC3)cc2CC(=O)N([C@H](C)CO)C[C@@H]1C	i	i	i	i
COc1ccccc1NC(=O)CSc1nc(-c2ccccc2)cc(=O)[nH]1	i	i	i	i
C[C@H](CO)N1C[C@H](C)[C@@H](CN(C)C(=O)C2CCCCC2)OCCCC[C@H](C)Oc2ccc(NC(=O)Nc3ccccc3)cc2C1=O	i	i	i	i
C[C@@H]1CN([C@H](C)CO)C(=O)c2cccc(NC(=O)Nc3ccc(C(F)(F)F)cc3)c2O[C@@H]1CN(C)S(=O)(=O)c1ccc(Cl)cc1	i	i	i	i
Cc1noc(C)c1NC(=O)N(C)C[C@H]1Oc2ccc(NC(=O)CCN3CCOCC3)cc2CC(=O)N([C@H](C)CO)C[C@@H]1C	i	i	i	i
C[C@H]1CN([C@@H](C)CO)C(=O)c2cc(NC(=O)CCC(F)(F)F)ccc2O[C@H]1CN(C)C(=O)Nc1ccccc1	i	i	i	i
Cc1noc(C)c1S(=O)(=O)Nc1ccc2c(c1)C(=O)N([C@@H](C)CO)C[C@@H](C)[C@@H](CN(C)C(=O)Cc1ccccc1)OCCCC[C@@H](C)O2	i	i	i	i
C[C@@H]1CN([C@@H](C)CO)C(=O)Cc2cc(NC(=O)c3ccncc3)ccc2O[C@@H]1CN(C)S(=O)(=O)c1cn(C)cn1	i	i	i	i
C[C@@H]1CN([C@@H](C)CO)C(=O)c2cc(N(C)C)ccc2O[C@H]1CN(C)C	i	i	i	i
Cc1cc(C)n(CC(O)COc2ccc3cc(Br)ccc3c2)n1 (configuration not stated)	i	i	i	i

# Full records, looked up by structure. Values in the order: c-Myc SMM	STAT3 SMM	ID4 SMM	mut p53 SMM
# `C[C@@H]1CN([C@H](C)CO)C(=O)c2cccc(NC(=O)c3ccncc3)c2O[C@@H]1CN(C)C(=O)Nc1ccccc1` across the screens: i	i	i	i
# `C[C@@H]1CCCCO[C@H](CN(C)Cc2ccncc2)[C@@H](C)CN([C@@H](C)CO)C(=O)c2cc(NS(C)(=O)=O)ccc2O1` across the screens: i	i	i	i
# `Cc1ccc(S(=O)(=O)Nc2ccc3c(c2)CC(=O)N([C@@H](C)CO)C[C@@H](C)[C@H](CN(C)Cc2ccncc2)O3)cc1` across the screens: i	i	i	i
# `C[C@H](CO)N1C[C@H](C)[C@@H](CN(C)C(=O)Nc2ccc(C(F)(F)F)cc2)OCCCC[C@H](C)Oc2ccc(NS(C)(=O)=O)cc2C1=O` across the screens: i	i	i	i
# `CC(Sc1nc(N)cc(N)n1)C(=O)Nc1ccc(Cl)cc1` (configuration not stated) across the screens: i	i	i	i

# Next part.
canonical_smiles	c-Myc SMM	STAT3 SMM	ID4 SMM	mut p53 SMM
CC(Sc1nc2ccccc2c(=O)[nH]1)C(=O)Nc1ccc(Cl)cc1 (configuration not stated)	i	i	i	i
CC[C@H](C)[C@H]1O[C@]2(CC[C@@H]1C)C[C@@H]1C[C@@H](C/C=C(\C)[C@@H](O[C@H]3C[C@H](OC)[C@@H](O[C@H]4C[C@H](OC)[C@@H](O)[C@H](C)O4)[C@H](C)O3)[C@@H](C)/C=C/C=C3\CO[C@@H]4[C@H](O)C(C)=C[C@@H](C(=O)O1)[C@]34O)O2	i	i	x	i
CN1CCN(C(=O)C2=C[C@@H](c3ccccc3)C[C@@H](OCc3ccc(CO)cc3)O2)CC1	i	i	i	i
CNC[C@H]1Oc2ccc(NC(=O)Nc3c(C)noc3C)cc2CC(=O)N([C@@H](C)CO)C[C@@H]1C	i	i	i	i
